From PubChem
PINK1 expr mod – modulators of PINK1 expression. PINK1 immunofluorescence, high-content cytometry, 24 h. hit rate 0.2% among 410,000. Potency, µM (doses to about 76.6 µM), for the others: at the top dose activation (PINK1 increase), actives largely listed as activators; active = well fitted activation curve with a large enough effect; inconclusive = small, poorly fitted or top-dose-only effect; inactive = flat fitted curve, though single readings scatter; cell line not stated here;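 further: potency means the concentration at half of the fitted maximal effect; % of control where 0% means no effect; nearly all actives have a fitted effect of over 65% in size; a mitochondrial uncoupler was the plate control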
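A stable cell line was treated with compounds at 5 concentrations for 24 hours, with CCCP as control. PINK1 levels and mitochondrial localization were measured by immunofluorescence with mitochondrial, cell and nuclear markers after fixation, read by laser-scanning cytometry.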
D2 ag – human D2 receptor agonism in beta-arrestin assay; P14416; hit rate 0.084% among 360,000; DiscoveRx PathHunter D2 beta-arrestin, luminescence, 90 min; 100% = 57 uM dopamine signal; activation, % (test concentration not listed); in the data active = activation above about 40%; inconclusive = about 15% to 40%; inactive = below about 15%; further: compound concentration not given in the record; the text of the record calls up to 30% inactive
Target sequence (P14416 whole entry, looked up): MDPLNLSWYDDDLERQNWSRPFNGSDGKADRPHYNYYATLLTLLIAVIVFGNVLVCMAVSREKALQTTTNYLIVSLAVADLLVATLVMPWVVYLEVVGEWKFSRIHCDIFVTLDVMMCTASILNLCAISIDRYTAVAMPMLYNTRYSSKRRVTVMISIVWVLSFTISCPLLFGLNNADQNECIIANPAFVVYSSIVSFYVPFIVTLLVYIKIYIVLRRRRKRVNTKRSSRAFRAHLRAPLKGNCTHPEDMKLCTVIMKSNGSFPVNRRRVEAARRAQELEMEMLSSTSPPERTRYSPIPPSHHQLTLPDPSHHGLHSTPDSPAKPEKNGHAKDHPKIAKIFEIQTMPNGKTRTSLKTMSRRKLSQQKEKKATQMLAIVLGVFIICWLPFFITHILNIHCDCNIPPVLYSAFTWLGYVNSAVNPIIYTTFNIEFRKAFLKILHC
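DiscoveRx PathHunter D2 beta-arrestin cells (2,100/well) attached overnight, then compound-stimulated 90 min at 37 C in HBSS/10 mM HEPES/0.1% Tween-20 buffer; beta-galactosidase complementation read by luminescence after 1 h at ambient temperature. Dopamine 57 uM final (EC100) as control.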
TRPML1 inh – blocks the human TRPML1 channel; Q9GZU1; TRPML1-inducible cells, Ca2+ dye fluorescence, FDSS; active compounds read low; inhibition of EC80 agonist-evoked calcium signal; activity change, negative = inhibition, % (concentration not given with the values); hit rate 0.02% among 390,000; in the data active means activity change below about -50%; inconclusive means about -30% to -50%; inactive means above about -30%;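 further: stimulus is agonist 54-4 at its EC80 concentration; on the % scale 0 is the no-effect control and ±100 the full control effect; the text of the record puts the active cut at -80%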
Target sequence (Q9GZU1 whole entry, looked up): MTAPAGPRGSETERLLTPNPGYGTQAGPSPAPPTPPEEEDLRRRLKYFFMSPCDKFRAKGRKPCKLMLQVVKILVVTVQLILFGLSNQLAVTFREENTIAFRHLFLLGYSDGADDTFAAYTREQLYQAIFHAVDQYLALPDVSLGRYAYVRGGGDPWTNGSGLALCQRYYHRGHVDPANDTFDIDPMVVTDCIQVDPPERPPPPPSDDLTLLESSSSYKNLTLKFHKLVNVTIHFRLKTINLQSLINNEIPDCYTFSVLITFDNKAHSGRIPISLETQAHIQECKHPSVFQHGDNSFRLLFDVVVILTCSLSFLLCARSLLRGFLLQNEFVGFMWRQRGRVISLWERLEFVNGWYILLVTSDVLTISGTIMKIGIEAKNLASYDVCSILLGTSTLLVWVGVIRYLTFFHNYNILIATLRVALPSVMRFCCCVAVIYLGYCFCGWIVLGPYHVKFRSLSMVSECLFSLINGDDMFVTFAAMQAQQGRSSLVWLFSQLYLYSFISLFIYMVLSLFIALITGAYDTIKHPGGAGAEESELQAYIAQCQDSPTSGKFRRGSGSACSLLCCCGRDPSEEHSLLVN
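Tet-induced TRPML1-DL cells loaded with Ca8 no-wash calcium dye were read kinetically on FDSS. Compound addition was followed by EC80 agonist 54-4 (4 uM final); inhibition was read over 110 s.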
Six1-Eya2 blk – Six1/Eya2 interaction inhibition | AlphaScreen GST-Six1/His-Eya2 binding, biochemical; active compounds read low; control for the full effect not named in the record | activity change, % (test concentration not listed) | hit rate 0.56% among 360,000; in the data active = activity change below about -65%; inconclusive = about -30% to -65%; inactive = above about -30%; further: on the % scale 0 is the no-effect control and ±100 the full control effect
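AlphaScreen with GST-Six1 and His-Eya2 (5X mix: 250 nM and 500 nM), glutathione donor and nickel acceptor beads; buffer 50 mM Tris pH 8.0, 300 mM NaCl, 1 mM TCEP; 1 h at 37 C in the dark.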
D2 potentiator – human D2 receptor positive allosteric modulation; AID 624464; DiscoveRx D2 beta-arrestin cells, luminescence, 90 min; 100% = 57 uM dopamine signal; potentiation, % (concentration not given with the values); hit rate 0.23% among 360,000; P14416; active = potentiation of 50% or more; inconclusive = 30% to 50%; inactive = 30% or less;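 further: compound concentration not given in the record; tested on top of an EC20 dose of dopamine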
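PathHunter D2 cells, attached overnight at 37 deg C, received compound in DMSO plus dopamine at EC20 (50 nM final) for 90 min at 37 deg C. Beta-arrestin recruitment was read as luminescence after 1 h with detection reagent at ambient temperature.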
TRPML1 ag – human mucolipin-1 channel agonism | activation, % (no concentration beside the values) | AID 624414 | Q9GZU1 | hit rate 0.12% among 410,000 | TRPML1-expressing cells, Ca2+ dye fluorescence, FDSS; host cell line not named in the record; reference of the full effect not given here; in the data active = activation above about 50%; inconclusive = about 30% to 50%; inactive = below about 30%; further: 0% is about no effect; the text of the record puts the active cut at 80%
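Cells: TRPML1-DL, 1X Tet inducer, ~16 h at 37 degrees C/5% CO2. Dye: ABD Ca8 no-wash + quencher, 45-90 min RT. Read: 10 s baseline, compound add, 110 s agonist phase; 54-4 EC80 (4uM final), 110 s antagonist phase.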
Numbers without * were called inactive; ? = inconclusive; . = no result given; [ ] = another dose, or the depositor's remark. No enrichment for hits; overall some 1% were active at least once.

mol,PINK1 expr mod,D2 ag,TRPML1 inh,Six1-Eya2 blk,D2 potentiator,TRPML1 ag
O=C(Cn1c(-c2cscn2)nc2ccccc21)Nc1ccc2ccccc2c1,-2.7%[38.3 µM],-1.4,11,-3,4,3.3
O=C(C1CCCN1C(=O)c1cccs1)N1CCN(Cc2ccc3c(c2)OCO3)CC1 (configuration not stated),-0.5%,-3.2,-8,3,10,-1.0
Cc1ccc(N2CCN(C(=O)C3CCCN(c4ncnc5c4nc4n5CCCCC4)C3)CC2)c(C)c1 (configuration not stated),2.5%,-1.3,27,5,-6,0.1
COc1ccccc1CNS(=O)(=O)c1ccc2c(c1)N(C(C)=O)CC(C)S2 (configuration not stated),-0.5%,-0.1,6,1,-6,-0.2
O=C(Cn1cnc([N+](=O)[O-])n1)N/N=C/c1ccc(O)cc1O,-1.7%,-1.2,-1,-92*,-2,0.0
Cc1ccc(-c2cc(C(=O)Nc3ccc(S(=O)(=O)Nc4onc(C)c4C)cc3)[nH]n2)c(O)c1,-0.3%,-1.9,20,0,-4,0.9
COc1ccc(Br)cc1S(=O)(=O)Nc1cccc(C)n1,3.6%,-3.0,23,16,-1,0.1
COc1ccc(OC)c(NC(=O)C2CCN(S(=O)(=O)c3c(C)noc3/C=C/c3ccc(C)cc3)CC2)c1,-0.6%,.,1,.,.,0.4

Next section.
mol,PINK1 expr mod,D2 ag,TRPML1 inh,Six1-Eya2 blk,D2 potentiator,TRPML1 ag
CN(C)/C=C1\C(=O)N(c2ccc(Oc3ccccc3)cc2)CS1=O (configuration not stated),-1.0%,-2.9,-4,3,-3,-1.1
O=C(C[n+]1cccc2ccccc21)c1ccc(Br)cc1,5.9%,-1.8,5,6,-6,0.4
Cn1c(CCN2CCCCC2)nc2cc(NC(=O)C3CCCCC3)ccc21,-1.2%,-4.1,25,3,-20,0.0
C=CC[C@H](CC(=O)N[C@H](CO)Cc1ccccc1)C(=O)N[C@H](COC(=O)[C@@H](CC=C)Cc1ccc(F)cc1)Cc1c[nH]c2ccccc12,6.3%,-5.7,4,1,-8,0.8
CCOc1ccccc1NC(=O)C1CC(=O)n2ncnc2N1 (configuration not stated),4.8%[38.3 µM],-1.5,6,0,-8,2.8
CCC(Sc1nc2ncccc2[nH]1)C(=O)Nc1cccc(OC)c1 (configuration not stated),0.7%,.,1,.,.,-0.2
O=C(COC(=O)c1ccncc1)c1ccc(Cl)c(Cl)c1,0.9%,-4.7,20,-5,-13,-0.1
CC(NS(=O)(=O)c1ccc(F)cc1)C(c1cccs1)N1CCOCC1 (configuration not stated),-0.2%,-4.5,1,-1,0,-0.7

Reformatted field by field: 3 of the compounds above
> CCOc1ccccc1NC(=O)C1CC(=O)n2ncnc2N1 (configuration not stated)
  PINK1 expr mod: 4.8%[38.3 µM]	D2 ag: -1.5	TRPML1 inh: 6	Six1-Eya2 blk: 0	D2 potentiator: -8	TRPML1 ag: 2.8
> CCC(Sc1nc2ncccc2[nH]1)C(=O)Nc1cccc(OC)c1 (configuration not stated)
  PINK1 expr mod: 0.7%	D2 ag: .	TRPML1 inh: 1	Six1-Eya2 blk: .	D2 potentiator: .	TRPML1 ag: -0.2
> O=C(COC(=O)c1ccncc1)c1ccc(Cl)c(Cl)c1
  PINK1 expr mod: 0.9%	D2 ag: -4.7	TRPML1 inh: 20	Six1-Eya2 blk: -5	D2 potentiator: -13	TRPML1 ag: -0.1

The list goes on:
mol,PINK1 expr mod,D2 ag,TRPML1 inh,Six1-Eya2 blk,D2 potentiator,TRPML1 ag
Nc1ccc(N2CCOCC2)cc1C(F)(F)F,2.1%,-1.3,-4,3,-6,1.1
CCn1c(C)nc2cc(N)ccc21,0.2%,-2.0,-1,1,-1,-0.7
NC(=O)C1=C[C@H](c2coc3ccccc3c2=O)C[C@H](OCCCCO)O1,2.5%,-1.7,-11,1,-13,-0.8
O=C(NCCCN1CCCCC1)C1(S(=O)(=O)c2ccc(Cl)cc2)CC1,0.6%,-3.9,19,9,-8,-0.6
CCCCn1c(N)c(N(CC(C)C)C(=O)CCCc2nc3ccccc3s2)c(=O)[nH]c1=O,-1.7%,-1.6,-6,10,0,0.8
O=C(COC(=O)c1cc(-c2ccco2)nc2ccccc12)NCc1ccccc1,-1.3%,-1.8,-25,9,-2,0.2
CN=C(c1ccc([N+](=O)[O-])cc1)N1CCCCC1,0.2%,-5.1,27,5,-5,0.5
COc1ccccc1CC(=O)Nc1ccc2nc(N3CCC(C)CC3)cc(C)c2c1,0.7%,.,-9,.,.,-0.2

Additional entries:
mol,PINK1 expr mod,D2 ag,TRPML1 inh,Six1-Eya2 blk,D2 potentiator,TRPML1 ag
CCCc1nc(SCC(=O)NCc2ccco2)c2c(=O)n(C)c(=O)n(C)c2n1,9.1%,-5.2,33,-1,6,-0.3
CCOC(=O)CN1CC23C=CC(O2)C(C(=O)NC2CCCCC2)C3C1=O (configuration not stated),0.0%,-3.6,-3,-1,2,-0.6
Cc1ccc(OCC(=O)N/N=C\c2cccs2)c([N+](=O)[O-])c1,-0.3%,-1.7,2,-5,-13,2.2
COc1cc(/C=N/OCC(=O)Nc2ccc(OC(F)F)cc2)ccc1OCc1ccccc1,6.0%,-0.9,-15,4,-14,5.4
COc1ccc(C(=O)N2CCC(c3nc4ccccc4s3)CC2)cc1Cl,1.4%,.,-17,.,.,0.2
CC(=O)Nc1ccc(C(=O)NCCN2CCOCC2)cc1,0.1%,-1.6,-4,3,1,-0.5
Cc1ccc(-c2nnc(Nc3ccc(O)cc3)c3ccccc23)cc1S(=O)(=O)NCCO,7.4%,-5.0,.,-7,-13,.
O=C(NCCc1ccccc1)C(=O)NCc1ccncc1,-0.4%,-2.4,25,10,-6,0.4

The results go on.
mol,PINK1 expr mod,D2 ag,TRPML1 inh,Six1-Eya2 blk,D2 potentiator,TRPML1 ag
CCOc1cccc(C(=O)NC(=S)Nc2cccc(NC(=O)c3ccccc3Cl)c2)c1,5.4%,-1.8,-1,-21,0,2.0
Cc1ccc2nc(N3C(=O)CNC3=S)sc2c1,-0.6%,2.1,-15,?,-7,0.3
COc1ccccc1NC(=O)N1CCN(c2nnc(C)c3c(C)n(-c4ccccc4)nc23)CC1,0.6%,.,-8,.,.,-0.6
CC(=O)Nc1ccc(Nc2ccc([N+](=O)[O-])cn2)cc1,0.8%,-5.3,66,-7,-12,-0.4
COC(=O)c1ccccc1NC(=O)N1CCc2c(sc3c2CCCC3)C1c1ccc(F)cc1 (configuration not stated),0.6%,.,-9,.,.,-0.7
CC(C)c1ccc(OCc2cc(=O)n3c(-c4ccccc4)csc3n2)cc1,6.3%,.,0,.,.,3.0
CCOC(=O)c1ccc(NC(=O)CCS(=O)(=O)c2cccc3nonc23)cc1,2.7%,-2.4,26,-5,-9,-0.6
Cc1cccc(NC(=O)CSCC(=O)Nc2cccc(S(=O)(=O)N3CCCCCC3)c2)c1,2.2%,-5.2,-3,-10,13,-0.2

Next part
mol,PINK1 expr mod,D2 ag,TRPML1 inh,Six1-Eya2 blk,D2 potentiator,TRPML1 ag
CCOc1cc(C(=O)N2CCC3(CC2)NCCc2[nH]cnc23)cc(OCC)c1OCC,0.9%,-0.2,5,7,-9,1.2
Cc1cc(=O)n(CC(=O)N2CCN(c3ccc(F)cc3)CC2)c2c1c(C)nn2C,-1.6%,.,-13,.,.,0.5
CN(CC(=O)Nc1ccccc1Br)C(=O)c1ccc2c(=O)n3c(nc2c1)CCC3,4.0%,0.0,-3,-7,1,1.0
Cc1ccc(OCc2nnc(SCC(=O)C(C)(C)C)n2Cc2ccco2)cc1,-3.1%,-0.9,-11,1,-11,?
COc1ccc(CCN(C)C(=O)COc2ccc(N(C)S(=O)(=O)c3ccc(C)cc3)cc2)cc1OC,1.1%,3.2,6,-2,2,1.6
O=C(/C=C/c1ccc2ccccc2n1)N1CCN(S(=O)(=O)c2ccccc2F)CC1,-1.2%,-2.1,-10,-6,-7,-0.4
COc1ccc(CCNC(=O)c2cc(S(=O)(=O)N3CCCCC3)ccc2Cl)cc1,0.2%,-4.1,1,-6,-6,0.2
COc1cc(C(=O)Nc2nc(N)n(-c3ccccc3)n2)cc(OC)c1OC,-1.5%,-2.0,11,-3,-6,-1.4

Remaining list, next part.
mol,PINK1 expr mod,D2 ag,TRPML1 inh,Six1-Eya2 blk,D2 potentiator,TRPML1 ag
CC(C)(C)c1ccc(NC(=O)c2ccsc2)cc1,15%,-3.2,3,7,-11,0.2
N#CCC(=O)N/N=C/c1cn(Cc2ccc(Cl)c(Cl)c2)c2ccccc12,6.8%,0.0,3,3,4,1.4
COCCCNC(=O)[C@H](CSCc1ccccc1)N1Cc2ccccc2C1=O,0.2%,-1.1,-16,7,-2,0.6
CCOC(=O)c1cnc(-n2nc(C)cc2C)nc1N1CC(C)OC(C)C1 (configuration not stated),.,2.0,-8,-9,-11,-0.4
CCCCCc1c(O)nc(SCC(=O)NCC2CCCO2)[nH]c1=O (configuration not stated),-0.9%,-2.8,15,-4,-8,-0.6
CS(=O)(=O)N(CC(=O)NCCc1ccccc1)c1cccc([N+](=O)[O-])c1,1.5%,-7.2,10,4,-3,0.3
FC(F)C(F)(F)C1=CC(c2cccs2)=NCCN1,-0.9%,-4.1,-4,-3,-1,-1.4
O=C(CSc1ncccn1)NC1CCCC1,0.3%,0.6,35,3,-4,-0.2

(continued)
mol,PINK1 expr mod,D2 ag,TRPML1 inh,Six1-Eya2 blk,D2 potentiator,TRPML1 ag
N#C/C(=C\c1ccc(Cl)cc1)c1nc2ccccc2[nH]1,4.3%,.,-5,.,.,0.4
CCOc1ccc(S(=O)(=O)NCc2ccncc2)cc1NC(=O)c1ccccc1,0.5%,2.1,3,-9,-7,-0.4
CCOC(=O)C1CCN(C(=O)c2ccc(OCC(=O)Nc3ccc(OCC)cc3)c(OC)c2)CC1,0.7%,2.6,-10,7,2,0.6
Cc1cccc(OCC(=O)NCC(=O)N/N=C/c2cc(Br)ccc2OCc2ccccc2)c1,-0.5%,-4.1,-7,5,-3,-0.1
CCOC(=O)N1CCC(NC(=O)C2=C(C)C(=O)OC23CCC(C)CC3)CC1 (configuration not stated),3.9%,-5.3,-1,-1,-8,-0.2
Cc1cc(C)c(S(C)(=O)=O)c(=O)[nH]1,-2.2%,-0.3,6,1,5,0.2
CCOc1ccccc1CNCCOC,0.1%,-1.3,-18,5,-3,0.5
S=c1[nH]nc(-c2cccnc2)n1/N=C/C(Cl)=C\c1ccccc1,-0.1%,-0.5,17,2,-2,-0.9

More entries:
mol,PINK1 expr mod,D2 ag,TRPML1 inh,Six1-Eya2 blk,D2 potentiator,TRPML1 ag
COc1cccc(/C=N/NC(=O)C(=O)NCc2cccnc2)c1OC,1.4%,-0.9,9,4,-6,-0.4
NC(=S)NN=C1CCCCCCCC1,0.2%,-8.3,-25,0,-11,0.5
CCN(c1ccccc1)S(=O)(=O)c1ccc(Cl)c(NC(=O)CSc2nnc(C)s2)c1,0.4%,-4.6,-9,1,-16,0.0
O=C(Cn1cc(SCc2ccccc2Cl)c2ccccc21)N1CCCCCC1,2.6%,.,23,.,.,1.6
Cc1cccc(NC(=O)CSc2nc3c([nH]c4ccccc43)c(=O)n2-c2cc(C)cc(C)c2)c1,-0.9%,.,-2,.,.,1.3
